# MgrA DNA FP = alters Staphylococcus aureus MgrA binding to DNA. fluorescence polarization. inhibition, %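 (about 10 µg/mL by stock and volumes)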. 0.13% of 84,000 active. AID 602314;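 active means above 50% in either of two replicates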;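 further: 0% = protein plus DNA without compound and 100% = DNA alone without protein; higher means less MgrA bound to DNA so lower polarization; one replicate is shown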
# Sa helicase inh = S. aureus DNA helicase inhibition; inhibition, %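 (tested at about 80 µM)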; 0.05% of 120,000 active; purified S. aureus helicase, fluorescence unwinding assay; about half of the hits fall short of the stated cut;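 active means both duplicates at 50% or more, or one of them with a favoured structure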;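 further: 0% = mean of negative control wells and 100% = mean of positive control wells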
# Starred values were filed as active, the others as inactive; · = not tested or not shown.
cpd | MgrA DNA FP | Sa helicase inh | molecule
1 | 0.6 | · | Oc1oc(-c2ccco2)nc1/C=N/c1ncn[nH]1
2 | 0.2 | 3 | O=C1C2C3C=CC(C3)C2C(=O)N1CCO (stereo not drawn)
3 | · | 3 | CN(C)/C(=N\S(=O)(=O)c1ccccc1)c1ccccc1
4 | 1.6 | · | Cc1cc(C)n(-c2ccc(N)cc2)n1
5 | 3.3 | · | CSC1=NCCCN1C(=O)c1c(-c2ccccc2Cl)noc1C
6 | · | 1 | CCCNC(=O)CSc1nc2sc(C)c(C)c2c(=O)n1C1CCCC1
7 | 6.2 | 4 | CC(=O)Nc1cc(S(=O)(=O)C(F)(F)F)ccc1C
8 | · | 1 | CC/C(=N\NC(C)=O)c1ccc(OC(F)F)cc1
9 | 2.1 | -3 | O=C(CN1C(=O)/C(=C\c2ccc(Cl)cc2)Sc2ccccc21)NCC1CCCO1 (stereo not drawn)
10 | · | -15 | Cc1cccc(OCCC(=O)OCc2ncc(-c3ccccc3)o2)c1
11 | -0.9 | · | CC1(C)CC(=O)C=C(SCC(=O)Nc2cc(C(F)(F)F)cc(C(F)(F)F)c2)S1
12 | · | -7 | CCCNC(=O)CSC1=NS(=O)(=O)c2ccccc2N1
13 | -0.2 | -1 | CC(C)=CCC(C)(C)CNc1ccc(C)cc1
14 | -1.5 | · | O=C1CCC(c2ccccc2)=NN1
15 | 0.8 | 3 | CCc1ccc2ncc(S(=O)(=O)c3ccccc3)c(N3CCCC3)c2c1
16 | · | -32 | N#Cc1ccccc1CO/N=C(\N)c1nonc1N
17 | 0.0 | 15 | CN(C1CCCCC1)S(=O)(=O)N1CCCC(C(=O)O)C1 (stereo not drawn)
18 | 1.0 | 18 | CC(C)CC(=O)CC1(O)C(=O)Nc2ccccc21 (stereo not drawn)
19 | -2.8 | · | O=C(c1ccc(Cl)cc1)N1CCN(c2cccc3[nH]ccc23)CC1
20 | 2.9 | · | CCCN(CCC)S(=O)(=O)c1ccc(C(=O)Nc2nc3c(OCC)cccc3s2)cc1
21 | 0.1 | 17 | NC(=O)CSc1nnc(C2CC2)n1Cc1ccccc1
22 | · | 5 | COC(=O)CSC(=S)N1C(C)CCCC1C (stereo not drawn)
23 | -0.9 | 13 | CC(=O)Nc1ccc(S(=O)(=O)N2CCN(c3nc4ccccc4s3)CC2)cc1
24 | · | 8 | O=C(Cn1cnc(S(=O)(=O)N2CCCCC2)c1)N1CCC(Cc2ccccc2)CC1
25 | 3.9 | · | COc1cccc(-c2ncc(-c3ccccc3)o2)c1
26 | -1.2 | 11 | CCC(C)NC(=O)C1CCC(CNS(=O)(=O)c2ccccc2)CC1 (stereo not drawn)
27 | 1.6 | 0 | COc1ccc2c(c1OC)C(=O)N1c3ccccc3N=C(c3ccc(Br)cc3)CC21 (stereo not drawn)
28 | -7.2 | · | CSc1nc(-c2ccncc2)nc(N)c1C#N
29 | 13 | -35 | CC(C)(C)c1cc(C(F)(F)F)c2c(N)c(C(=O)NC3CC3)sc2n1
30 | · | 6 | CCn1c(-c2cc(OC)ccc2OC)cs/c1=N\N=C\c1ccc(O)c(OC)c1
31 | · | 5 | O=C(Nc1c[nH]c(=O)[nH]c1=O)c1ccc2c(c1)C(=O)N(c1ccc(C(=O)c3ccccc3)cc1)C2=O
32 | 1.1 | 2 | COc1cccc(NS(=O)(=O)c2ccc3[nH]cc(C(=O)N(C)Cc4ccccc4)c(=O)c3c2)c1
33 | -0.5 | · | CCOC(=O)C1=C(C)N=c2s/c(=C\c3ccc(OCC(=O)O)c(OC)c3)c(=O)n2C1c1ccc(OC)cc1 (stereo not drawn)
34 | -0.4 | · | CCOC(=O)/C(C#N)=C1\CCCc2cc(OC)ccc21
35 | -1.8 | · | CC/C(=N\OC(=O)Nc1ccccc1)c1ccc(-c2ccccc2F)cc1
36 | · | -17 | COc1ccc(-c2ccc(=O)[nH]n2)cc1
37 | 4.2 | 3 | CCN1C(=O)CC(NCc2ccc3c(c2)OCO3)C1=O (stereo not drawn)
38 | · | -8 | O=C(CSc1cn(CCNC(=O)c2cccs2)c2ccccc12)NC1CCCC1
39 | -0.1 | -19 | C[N+]1(CCOS(=O)C23CC4CC(CC(C4)C2)C3)CCOCC1 (stereo not drawn)
40 | -0.8 | 3 | CCCN(CCC)C(=O)Cn1nc(CC)n2c(cc3sc(C)cc32)c1=O
41 | 0.8 | 0 | CCC(C)OC(=O)C1=C(C)NC2=C(C(=O)CC(c3ccc(OC)c(OC)c3)C2)C1c1ccc(C)o1 (stereo not drawn)
42 | · | 3 | Cc1cc(-c2csc(-c3ccccn3)n2)c(C)n1Cc1ccco1
43 | · | 31 | COC(=O)c1ccc(C(c2c(N)n(CC(C)C)c(=O)[nH]c2=O)N2CCN(S(=O)(=O)c3ccc(C)cc3)CC2)cc1 (stereo not drawn)
44 | · | -27 | Cc1c(C(=O)Nc2ccncc2)cc(-c2ccccc2)n1CCCN1CCOCC1
45 | · | 11 | COCCNC(=O)c1ccc(CS(=O)c2cccc(C)c2)o1 (stereo not drawn)
46 | 2.3 | -1 | CCCCC1(CC(=O)N2CCCCC2)C(=O)N(c2ccccc2)N(c2ccccc2)C1=O
47 | · | 6 | CON(C)S(=O)(=O)c1cc(C(=O)OC(C)C(=O)Nc2ccc(N3CCOCC3)cc2)ccc1Cl (stereo not drawn)
48 | · | 19 | CCOC(=O)c1c(S(=O)(=O)N2CCCC2)c(C)n(C)c1C
49 | 0.3 | · | O=C1NNC(SCc2ccc(Br)cc2)=Nc2ccccc21
50 | 0.6 | 4 | CCNc1nc(NCC)nc(SCCOc2ccc(Br)cc2)n1
51 | · | -8 | C=CCSc1nnc(NC(=O)c2cn(-c3ccccc3)nc2-c2ccccc2)s1
52 | · | 2 | Cc1csc(=Nc2ccc(S(=O)(=O)N3CCOCC3)cc2)n1Cc1ccco1
53 | · | -15 | COc1ccc(NC(=O)c2cc(=O)c3ccccc3o2)cc1
54 | · | -8 | COc1ccc(CNC(C(=O)NC(N)=O)C(C)C)cc1OC (stereo not drawn)
55 | -0.6 | · | CCCCC[C@H](O)/C=C/[C@@H]1[C@H]2C/C(=C/CCCC(=O)O)O[C@H]2C[C@H]1O
56 | -1.6 | 8 | C=CCSc1nnc(Cc2c(C)[nH]c3ccccc23)o1
57 | 0.0 | · | CC(=O)OCc1cc(/C=N/N(C(C)=O)c2ccccc2)nn1-c1ccccc1
58 | -15 | 14 | CCOCc1cc(C)[nH]n1
59 | 2.5 | 7 | CCOC(=O)N1c2ccccc2CC1C (stereo not drawn)
60 | · | 0 | COc1cccc(CN(C)C(=O)c2ccc3ccccc3n2)c1OC

# (list continues)
cpd | MgrA DNA FP | Sa helicase inh | molecule
61 | -1.0 | 10 | COc1ccc(CC(=O)Nc2cccc(-c3nnc(-c4ccco4)o3)c2)cc1
62 | 0.5 | · | O/N=C/c1cc(Br)cs1
63 | -2.0 | 1 | O=C(CCCN1C(=O)S/C(=C/c2ccccc2)C1=S)NC12CC3CC(CC(C3)C1)C2
64 | -0.8 | -1 | FC(F)(F)c1cc(-c2ccccc2)nc(NCC2CCCO2)n1 (stereo not drawn)
65 | · | 1 | O=C(c1ccco1)N1CCN(c2c3c(nc4nncn24)CCC3)CC1
66 | · | 10 | CC(C)(C)C(=O)C(O)C(C)(C)C (stereo not drawn)
67 | 0.2 | · | O=C(Cn1cnc2sc(-c3ccccc3)cc2c1=O)c1cccs1
68 | · | -81 | NC(=S)c1cc2ccc(O)cc2oc1=O
69 | · | 8 | CCc1ccc(NC(=O)CSc2nc(=O)n(CCN3CCOCC3)c3c2CCC3)cc1
70 | -0.2 | 13 | COCCNC(=S)N1CCC(NC(C)=O)CC1
71 | -2.0 | 7 | CCn1c(=O)cc(SCC(=O)Nc2cccnc2)c2ccccc21
72 | 2.7 | 9 | COC(=O)c1ccc(Oc2nc(OC)nc(N(C)C)n2)cc1
73 | · | 3 | CCn1c(COc2ccccc2)nc2ccccc21
74 | -0.5 | · | COc1cc(CCC(O)c2ccc(C)cc2)cc(OC)c1OC (stereo not drawn)
75 | · | -8 | Nc1ccccc1C(=O)NCC(=O)O
76 | · | -8 | O=C(CO)Nc1ccc2c(c1)OCCO2
77 | -0.1 | -14 | O=C(Nc1ccccc1)c1cc(=O)[nH]c2ccccc12
78 | 0.7 | -2 | COc1ccc(C(=O)C2=NN(C(C)=O)CC2c2ccco2)cc1 (stereo not drawn)
79 | · | -13 | NC(=O)/C(=N\OC(=O)c1ccco1)c1nc(-c2ccc(Br)cc2)cs1
80 | 2.2 | 8 | CCc1ccc(C(=O)N2CCCC2)s1
81 | 3.6 | 0 | CC(C)CNCC(=O)N(C1CCCCC1)C1CCCCC1
82 | · | -9 | N#CCC1CCCO1 (stereo not drawn)
83 | · | 6 | O=c1[nH]cc(S(=O)(=O)Nc2ccccc2)c(=O)[nH]1
84 | · | -4 | C=CCn1c(C)nnc1SCC(=O)NCC12CC3CC(CC(C3)C1)C2
85 | · | -4 | Cc1ccc(C)c(NC(=O)C23CC4CC(CC(O)(C4)C2)C3)c1
86 | · | 29 | Cc1cc(C(=O)Nc2ccc3c(c2)-c2ccccc2C3)no1
87 | · | 7 | O=C(NCC1CCCCC1)c1ccc(F)c(S(=O)(=O)N2CCOCC2)c1
88 | 2.4 | 7 | Cc1cc2nc(S(=O)(=O)Cc3cccc(C(F)(F)F)c3)[nH]c2cc1C
89 | -2.4 | · | COC(=O)c1ccccc1NC(=S)Nc1ccccc1
90 | · | 17 | NC(=O)/C=C/C(=O)Nc1ccccc1
91 | -9.6 | · | COc1cc(C=Nc2ccc(C)c(Cl)c2)cc(OC)c1OC
92 | 0.8 | · | OC(Cc1ccccc1)(c1ccccc1)c1ccccc1N=Cc1ccc2c(c1)OCO2 (stereo not drawn)
93 | -0.3 | 18 | O=C(Cn1c(=O)sc2ccccc21)OC(C(=O)c1ccccc1)c1ccccc1 (stereo not drawn)
94 | · | 22 | CC(C)CNS(=O)(=O)c1cc(C(=O)O)c(Cl)cc1Cl
95 | 0.0 | · | COc1cc2nc3c4ccccc4n(CCC(C)C)c3nc2cc1OC
96 | -0.7 | · | O=C(Nc1cc(Cl)ccc1OC(=O)c1cc(Cl)cc(Cl)c1)c1cc(Cl)cc(Cl)c1
97 | · | -46 | O=C1C(=Cc2cn(CC(=O)N3CCOCC3)c3ccccc23)C(=O)c2ccccc21
98 | 0.9 | -8 | Cn1c(SCCN2CCCC2)nnc1C1CCN(S(=O)(=O)c2cccc(F)c2)CC1
99 | 1.7 | -2 | CC(O)c1nc2ccccc2n1C1CCCCC1 (stereo not drawn)
100 | · | -10 | Cc1ccccc1Cn1c2ccccc2c2cnn(CC(=O)NC(C)C)c(=O)c21
101 | · | 8 | Cc1ccccc1C(=O)c1cccn1CC(=O)NC1CCCC(C)C1C (stereo not drawn)
102 | · | 17 | COc1ccccc1NC(=O)C1CCCC1
103 | -0.9 | 5 | Cc1cc2cc(CNC(=O)C3CCCCC3)ccc2[nH]1
104 | 0.4 | · | CSc1nc2cc(C)nn2c(-c2ccccc2)c1C#N
105 | · | -18 | O=C(CCN(/N=C/c1ccco1)C1=NS(=O)(=O)c2ccccc21)NC1CCCCC1
106 | · | 6 | Cc1cc(NC(=O)CCCCCN2CCOCC2)no1
107 | 0.0 | 10 | CC(C)c1ccc(NC(=O)C(c2ccccc2)N2CC(=O)Nc3ccccc32)cc1 (stereo not drawn)
108 | · | -24 | CCN(CC)S(=O)(=O)c1ccc2c(c1)c(=O)c(C(=O)N1CCCC1)cn2C
109 | -0.4 | · | O=C1OC2COC(=O)C2C=C1NC(=O)c1ccc(Cl)cc1 (stereo not drawn)
110 | -0.7 | 6 | CCC1=Nc2cc(C(=O)NCCCN3CCOCC3)ccc2Sc2ccc(Br)cc21
111 | · | 23 | CCNC(=O)N(C)Cc1nc(-c2ccc(OC)cc2)no1
112 | 0.6 | 3 | CCN1C(=O)c2ccc(C(=O)Nc3ccc(C(=O)O)cc3)cc2C1=O
113 | · | 1 | O=C(CC12CC3CC(CC(C3)C1)C2)Nc1ccc(-c2nc3ncccc3o2)cc1
114 | · | 6 | Sc1ccc2c(c1)OCCCO2
115 | · | -3 | CCNS(=O)(=O)c1ccc(NC(=O)c2cncc(Br)c2)cc1
116 | · | 0 | COc1ccc(NC(=O)CCc2c(C)noc2C)cn1
117 | 0.5 | 5 | c1cc(C2OCC3(CO2)COC(c2ccncc2)OC3)ccn1 (stereo not drawn)
118 | 0.2 | · | N#CC1=C(N)Oc2c(c(=O)oc3ccccc23)C12C(=O)Nc1ccc(Br)cc12 (stereo not drawn)
119 | -2.4 | · | CSc1nc(C=Nc2ccc(Cl)cc2Cl)ccc1C#N
120 | -1.2 | 5 | c1ccc2oc(SCCSc3nc4ccccc4o3)nc2c1

# (more compounds)
cpd | MgrA DNA FP | Sa helicase inh | molecule
121 | · | -7 | Cc1c(OC(=O)c2ccccc2)ccc2c3c(c(=O)oc12)CCC3
122 | · | 7 | Cc1cccc(N(C(=O)c2cnc3n(c2=O)CCS3)C2CCCCC2)c1
123 | · | -28 | COc1ccc(Nc2nc(SC)nc(-c3ccccc3)c2C#N)cc1OC
124 | · | -19 | O=C(c1nn(-c2ccccc2)c(=O)c2ccccc12)N1CCN(c2ccccc2)CC1
125 | -7.5 | · | O=C(COC(=O)c1ccccc1NCc1ccco1)c1ccccc1

# This is a subset. The share of hits here may be higher or lower than overall.
